Screens: PubChem, National Center for Advancing Translational Sciences (NCATS)
miR-21 FLuc = miR-21 reporter, rising signal. HeLa miR-21 FLuc reporter, luciferase, 48 h. Potency, µM (highest dose often 38.3 µM), for inactives: at the highest dose reporter change, positive = more light. 340,000 tested, under 10 active; active = well fitted rising curve with a large enough effect; inconclusive = small, poorly fitted or top-dose-only effect; inactive = no such curve, though single readings can be large or run the other way;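 further: % of control where 0% means no effect; miR-21 action dims this reporter so a rising signal means less miR-21 action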
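Using DMEM plus 10% FBS, HeLa miR-21-FLuc cells are incubated with test compounds (final up to about 40uM) for 48 hours; firefly luciferase signal is then imaged following reagent-mediated lysis.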
GLA inh pH 4.5 = blocks human alpha-galactosidase A at pH 4.5; P06280; purified enzyme, 4-MU-alpha-Gal fluorescence, pH 4.5; activity change, negative = inhibition, % at 105 µM; 230,000 tested, under 10 active; AID 1467; inconclusive = small, poorly fitted or top-dose-only inhibition, or a rising curve; inactive = flat fitted curve, though single readings scatter; no compound was filed as active;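 further: 0% = full activity with enzyme and -100% = basal without enzyme; dose as in the result columns while the protocol names 77 µM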
Target sequence (P06280 whole entry, looked up): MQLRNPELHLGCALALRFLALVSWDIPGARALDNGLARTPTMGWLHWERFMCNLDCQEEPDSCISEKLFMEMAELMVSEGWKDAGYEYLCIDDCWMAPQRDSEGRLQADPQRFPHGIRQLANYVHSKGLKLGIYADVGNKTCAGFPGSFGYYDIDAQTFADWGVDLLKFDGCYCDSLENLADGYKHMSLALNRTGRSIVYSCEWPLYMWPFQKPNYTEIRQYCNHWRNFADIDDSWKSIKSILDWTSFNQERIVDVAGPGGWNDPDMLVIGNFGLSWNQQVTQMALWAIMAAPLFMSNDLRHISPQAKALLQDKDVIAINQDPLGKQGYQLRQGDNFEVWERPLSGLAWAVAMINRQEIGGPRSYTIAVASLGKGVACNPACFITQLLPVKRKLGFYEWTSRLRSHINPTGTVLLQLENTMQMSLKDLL
Rango complex inh = Rango-importin beta binding inhibition | 340,000 tested, 0.031% active | Q14974 | Rango CFP/YFP FRET sensor + importin beta, 45 min | AID 540263 | Potency, µM (series often up to 92.2 µM), for the others: at the top dose inhibition of complex formation; active = rising FRET ratio curve, often small or poorly fitted; inconclusive = mostly compound fluorescence or quenching in the first reads; inactive = flat curves in all reads;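 further: potency means the concentration at half of the fitted maximal effect; 0% = DMSO wells and 100% = buffer wells lacking importin beta; nearly all actives have a fitted effect of over 15% in size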
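FRET biosensor Rango (snurportin 1 IBB between N-terminal EYFP and C-terminal Cerulean), 50 nM in PBS/1 mM DTT/0.02% Tween-20/0.1% BSA, preincubated 5 min RT with compound; 0.125 microM importin beta added, 45 min RT, CFP/YFP FRET ratio read.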
Rango dissoc inh = inhibitors of RanGTP-induced Rango-importin beta complex dissociation; O95149+P62826; Biochemical FRET Rango-importin beta, RanGTP-induced dissociation; Potency, µM (doses to about 46.1 µM), without a hit: at the top dose activity change, negative = inhibition; 340,000 tested, 0.071% active; AID 540253; active means falling FRET ratio curve, often poorly fitted, with flat reads before Ran was added; inconclusive means other falling curves, or compound fluorescence or quenching; inactive means flat or rising ratio curve;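 further: potency means the concentration at half of the fitted maximal effect; % of control where 0% means no effect; nearly all actives have a fitted effect of over 45% in size; -100% = wells without RanGTP and RCC1; the record marks most hits as doubtful in a second field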
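Rango/importin beta premix (0.1/0.25 uM final), PBS + 1 mM DTT + 0.02% Tween-20 + 0.1% BSA; cpd 5 min RT; FRET pre-read; + RanGTP-RCC1 (0.6 uM Ran, 2 mM GTP, 0.2 uM RCC1); 45 min RT; FRET post-read, ex 430, em 486/530 nm.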
The depositor's hits bear a star; ? = inconclusive; · = no result given; & = joins results of further samples. The list is partial (hit frequency here may not be typical).

SMILES	miR-21 FLuc	GLA inh pH 4.5	Rango complex inh	Rango dissoc inh
COc1ccc(C(CC(=O)Nc2ccc(C)cc2)NC(=O)C(F)(F)F)cc1 (stereo unspecified)	-14%	1	-3.1%	6%
COc1ccc(NC(=O)CSCC(=O)N2CCCc3ccccc32)cc1	·	·	-4.7%	-23%
CCCC(=O)N1CCN(c2ccc(NC(=O)c3ccccc3)cc2)CC1	-11%	2	0.0%	-8%
Cc1ccc2ccc(S(=O)(=O)n3nc(C)cc3C)cc2c1	-5%	-6	4.4%	1%
CCCNC(=O)CSc1ccc(S(=O)(=O)N2CCCCC2)cn1	·	·	-2.2%	13%
COCCN(C(=O)CC1OC(=O)c2ccccc21)c1c(N)n(Cc2ccccc2)c(=O)[nH]c1=O (stereo unspecified)	·	·	-0.6%	9%
CCOC(=O)c1c(C)c(C#N)c2c3ccccc3ccn12	-2%	7	-4.4%	-8%
Cn1c(=O)oc2cc(S(=O)(=O)N3CCC(C(=O)N4CCc5ccccc5C4)CC3)ccc21	-1%	-2	-3.5%	9%
O=C(Nc1cccc(F)c1)NC1CCN(Cc2ccccc2)CC1	-5%	12	4.4%	3%
COc1ccc(/C=C(\C#N)C(=O)Nc2cc(S(=O)(=O)N3CCOCC3)ccc2N2CCCC2)cc1	0%	-5	?	-7%
O=C(Nc1ccccc1Cl)c1ccc(C(=O)Nc2ccccc2Cl)cc1	·	·	0.6%	?
O=C(NC(=O)N1CCN(c2cccc(Cl)c2)CC1)c1ccccc1	6%	-3	-0.1%	-11%
CCN(C(=O)CN1c2ccccc2CC1C)c1c(N)n(Cc2ccccc2)c(=O)[nH]c1=O (stereo unspecified)	-2%	-4	-4.1%	15%
COc1ccc(-c2nc3ccccc3n2Cc2ccccc2)cc1	-1%&-8%	-9	0.0%	0%
CC1CCN(c2cc(N3CCOCC3)c(F)cc2[N+](=O)[O-])CC1	-16%	-19	2.0%	?
N#C/C(=C\c1ccc(Cl)c([N+](=O)[O-])c1)c1ccccn1	2%	4	1.6%	2%
CC1CCCC(C)N1C(=O)COC(=O)C(Cc1ccccc1)NC(=O)c1cccs1 (stereo unspecified)	-1%	7	-3.7%	-4%
O=C1N=C2N(CCN3CCCCC3)c3ccccc3N2/C1=C\c1ccc([N+](=O)[O-])s1	·	·	0.2%	5%
Oc1cccc(/C=N/N(Cc2ccccc2)c2ccccc2)c1	7%	-13	-0.2%	9%
CC(C)CCNC(=O)NC(=O)CSc1nnc2ccccn12	3%	-3	-4.6%	-5%
COc1ccc(CNC(=O)c2nn(-c3ccccc3)cc2OC)cc1	-7%	·	-3.3%	0%
CCN=C1SCC(=O)N1c1ccc(OC)cc1	-7%	5	-4.5%	1%
COC(=O)Cc1ccc(NC(=S)NCCCO)cc1	-2%	14	1.4%	6%
O=C1N=C(N2CCCC2)S/C1=C\c1ccccc1	-29%	-6	0.7%	-1%
Cc1ccc(C(C(=O)NC(C)(C)C)N(C(=O)c2csnn2)c2cccc(F)c2)o1 (stereo unspecified)	-7%	0	-1.8%	-4%

An excerpt from above in order of SMILES length, low to high:
SMILES	miR-21 FLuc	GLA inh pH 4.5	Rango complex inh	Rango dissoc inh
COC(=O)Cc1ccc(NC(=S)NCCCO)cc1	-2%	14	1.4%	6%
COc1ccc(-c2nc3ccccc3n2Cc2ccccc2)cc1	-1%&-8%	-9	0.0%	0%
Oc1cccc(/C=N/N(Cc2ccccc2)c2ccccc2)c1	7%	-13	-0.2%	9%
Cc1ccc2ccc(S(=O)(=O)n3nc(C)cc3C)cc2c1	-5%	-6	4.4%	1%
CCCNC(=O)CSc1ccc(S(=O)(=O)N2CCCCC2)cn1	·	·	-2.2%	13%
COc1ccc(NC(=O)CSCC(=O)N2CCCc3ccccc32)cc1	·	·	-4.7%	-23%
O=C(NC(=O)N1CCN(c2cccc(Cl)c2)CC1)c1ccccc1	6%	-3	-0.1%	-11%
CCCC(=O)N1CCN(c2ccc(NC(=O)c3ccccc3)cc2)CC1	-11%	2	0.0%	-8%
CC1CCN(c2cc(N3CCOCC3)c(F)cc2[N+](=O)[O-])CC1	-16%	-19	2.0%	?
CC1CCCC(C)N1C(=O)COC(=O)C(Cc1ccccc1)NC(=O)c1cccs1 (stereo unspecified)	-1%	7	-3.7%	-4%
Cc1ccc(C(C(=O)NC(C)(C)C)N(C(=O)c2csnn2)c2cccc(F)c2)o1 (stereo unspecified)	-7%	0	-1.8%	-4%
CCN(C(=O)CN1c2ccccc2CC1C)c1c(N)n(Cc2ccccc2)c(=O)[nH]c1=O (stereo unspecified)	-2%	-4	-4.1%	15%
Cn1c(=O)oc2cc(S(=O)(=O)N3CCC(C(=O)N4CCc5ccccc5C4)CC3)ccc21	-1%	-2	-3.5%	9%

(more compounds)
SMILES	miR-21 FLuc	GLA inh pH 4.5	Rango complex inh	Rango dissoc inh
Cc1ccc(C)c(S(=O)(=O)Nc2cc3c4c(c2)CCN4C(=O)CC3)c1	·	·	?	3%
COc1ccc([C@@H]2C[C@H](c3ccccc3)Oc3cc(OC)c(OC)c(OC)c32)cc1	1%	-2	0.0%	-13%
Cc1ccc(C(=O)NCCC(=O)NCc2cc(=O)n(C)c(=O)n2C)cc1	0%	·	2.2%	-7%
OCC1(Cc2ccc(Cl)cc2)CCN(Cc2ccc(Oc3ncccn3)cc2)CC1	-2%	5	-0.4%	7%
C=CC[C@@H](CC(=O)N[C@H](CO)Cc1ccccc1)C(=O)N[C@@H](COC(=O)[C@@H](CC=C)Cc1ccc(F)cc1)Cc1c[nH]c2ccccc12	·	·	0.4%	2%
COc1ccc(S(=O)(=O)NNC(=O)C2CC(c3cccnc3)=NO2)cc1 (stereo unspecified)	-1%	-1	-0.8%	1%
COC(=O)CN(c1ccc(C)cc1)S(=O)(=O)c1ccc2c(c1)n(C)c(=O)c(=O)n2C	4%	10	3.0%	8%
O=C(Cc1ccc(Cl)cc1Cl)NC1CCCCCC1	-8%	·	0.4%	-1%
N#C/C(=C(/O)CO/N=C/c1ccccc1Cl)c1nc2ccccc2[nH]1	-1%	-2	-4.5%	2%
O=C(CN1CCN(S(=O)(=O)c2ccc(Cl)cc2)CC1)Nc1ccc2c(c1)OCO2	-4%	-2	-0.1%	-5%
CCOC(=O)C1(CCOC)CCN(CC(C)Cc2ccc3c(c2)OCO3)CC1 (stereo unspecified)	-2%	·	-0.4%	0%
O=C(COC(=O)/C=C/c1ccc(S(=O)(=O)N2CCOCC2)cc1)NC1CCCCCCC1	-1%	6	-3.5%	0%
CCCn1c(=O)c2[nH]cnc2n(-c2ccc(Cl)cc2)c1=O	-11%	2	-3.6%	-1%
CC(C)(C)C(=O)Nc1ccc(C(=O)N/N=C/c2ccccc2OC(=O)c2ccc(Cl)cc2)cc1	-12%	9	-2.2%	-15%
O=C(COc1ccccc1)NCC(=O)Nc1cccc(S(=O)(=O)NC2=NCCC2)c1	-2%	3	0.3%	9%
Cc1cccc(N)c1-c1c(C)cccc1N	-2%	-2	3.0%	0%
O=C(OCc1nc(-c2ccccc2Cl)no1)c1ccco1	·	·	0.5%	6%
CCCOc1cc(C)c(S(=O)(=O)NC2CC(C)(C)NC(C)(C)C2)cc1C	-2%	2	-5.5%	-26%
O=C1CC[C@@H](CN(Cc2ccccn2)Cc2nc(Cc3ccccc3)no2)N1	-2%	-6	3.6%	0%
CCOc1ccc(S(=O)(=O)N2CCC(C(=O)N3CCN(c4ccccc4F)CC3)CC2)cc1C	7%	·	-5.9%	0%
CCOC(=O)Cn1c(=NC(=O)CC)sc2c(C)cc(C)cc21	0%	-16	-2.9%	2%
O=C(O)C(Cc1c[nH]c2ccccc12)NS(=O)(=O)c1ccc(Cl)cc1 (stereo unspecified)	-2%	-6	1.6%	-1%
C#CCOC(=O)c1ccccc1C(=O)N(CC)CC	-4%	-9	0.1%	2%
COCCn1cnnc1SCC(=O)Nc1cc(C)on1	·	·	2.3%	-1%
CNC(=O)[C@H](C)[C@@H]1C[C@@]1(C)[C@@H](NC(=O)OCc1ccccc1)c1ccccc1	1%	4&-1	-0.2%	2%
More records
SMILES	miR-21 FLuc	GLA inh pH 4.5	Rango complex inh	Rango dissoc inh
CC(OC(=O)CC(NC(=O)c1ccccc1Cl)c1ccccc1)C(=O)Nc1cccc(Cl)c1Cl (stereo unspecified)	-3%	-2	5.1%	-6%
Cc1cccc(C(=O)N(Cc2ccc(C)o2)C2CCS(=O)(=O)C2)c1 (stereo unspecified)	-6%	·	2.0%	0%
COCCn1c(=S)[nH]c2cc(C(=O)N3CC(C)CC(C)C3)ccc2c1=O (stereo unspecified)	6%	·	-3.1%	-4%
COc1ccnc(NCc2ccc(Cl)cc2)c1C#N	-34%	-2	1.2%	-7%
N#C/C(=C\c1ccc(Cl)cc1Cl)c1n[nH]c(Cn2cncn2)n1	-11%	5	-0.7%	8%
O=C(NCCc1ccc(Cl)cc1)C(=O)c1c[nH]c2ccccc12	-6%	·	11%	20%
CCCc1oc(C(=O)O)cc1CN1CCOCC1	3%	-12	-3.7%	30%
Cc1ccccc1/C=N/Nc1nc2ccccc2c(=O)n1O	-58%	1	-1.9%	6%
CCN(CC)S(=O)(=O)c1cccc(NC(=O)CNc2cccc(S(=O)(=O)N3CCOCC3)c2)c1	·	·	-0.4%	5%
CC[C@@]12C(=O)N(c3cccc(F)c3)C(=O)N1[C@H](c1ccc(OC)cc1)[C@@H]1C(=O)N(C(C)(C)C)C(=O)[C@@H]12	·	·	0.6%	11%
C/C(=C\c1ccccc1)CN1CCC(C(=O)N2CCC(C)CC2)CC1	-6%	-4	5.9%	-15%
CCOC(=O)c1nn(-c2cccc(Cl)c2)c2nc(Nc3ccccc3)cc(=O)n12	-4%	2	1.7%	8%
CN1CCN(C(=O)/C=C\C(=O)O)CC1	-8%	-1	3.2%	4%
COC(=O)c1cc(S(=O)(=O)Nc2cccc(-c3cnco3)c2)oc1C	-9%	·	2.5%	10%
CCC(=O)N1CCc2cc(S(=O)(=O)NC(Cc3ccccc3)C(=O)Nc3nccs3)ccc21 (stereo unspecified)	-12%	5	-3.6%	-19%
O=C(NCc1ccccn1)Nc1ccccc1Cl	-27%	·	-1.3%	3%
CC(=O)c1ccc(-n2c(C)ccc2-c2ccccc2)cc1	-23%	2	-2.4%	-3%
O=C(Cc1ccc(S(=O)(=O)N2CCOCC2)s1)Nc1ccc(N2CCOCC2)cc1	-45%	-1	-1.5%	15%
Cc1ccccc1OCC(=O)NCC(c1cccs1)N1CCOCC1 (stereo unspecified)	·	·	-2.7%	-18%
COC(=O)c1cc(S(=O)(=O)NCCc2ccc(Cl)cc2)c[nH]1	16%	·	0.5%	-20%
CCOC(=O)C1=C(COC(=O)CSc2ccc(C)cc2C)NC(=O)NC1C (stereo unspecified)	·	·	-1.4%	8%
CC(C)Oc1ccc(C(=O)Nc2ccc(N(C)C)cc2)cc1	-14%	4	-2.9%	-4%
O=C(Nc1ccccc1-c1ccccc1)C1CCCCC1	-3%	-11	-2.2%	-1%
COc1cccc(CC(=O)NNC(=O)c2c(-c3ccccc3)noc2C)c1	-3%	-10	1.2%	-6%
CNC(=O)NNC(=O)c1csc(-c2ccc(C(F)(F)F)cc2Cl)n1	5%	4	4.3%	-11%
Further results
SMILES	miR-21 FLuc	GLA inh pH 4.5	Rango complex inh	Rango dissoc inh
CCN(CC)S(=O)(=O)c1ccc(N2CCCC2)c(NC(=O)c2ccncc2)c1	-2%	-6	-1.1%	18%
CCOC(=O)N1CCN(C(=O)c2cc3ccccc3o2)CC1	-10%	·	-0.2%	?
COc1cc2c(c3oc(-c4ccccc4)cc(=O)c13)C=CC(C)(C)O2	-17%	4	3.2%	6%
CCN(CC(=O)Nc1c(F)cccc1F)C(=O)C1CCN(S(=O)(=O)c2ccc(C)cc2C)CC1	·	·	2.7%	-8%
COc1nnc(-c2ccc(N3CCOCC3)c(NC(=O)c3ccc(C)cc3)c2)c2ccccc12	-5%	0	0.7%	-1%
CCOC(=O)CN(C(=O)Cn1nnc2ccccc21)C(C(=O)NCCOC)c1ccccc1C (stereo unspecified)	0%	-6	-3.6%	2%
